Screens as filed in PubChem BioAssay.
Calb FLC: affects C. albicans growth with fluconazole | 300,000 tested, 0.57% active | C. albicans CaCi-2 (fluconazole-resistant clinical isolate) + fluconazole, Alamar Blue growth, 48 h | growth inhibition, % (no concentration beside the values);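 active = most replicates above 75%; inconclusive = exactly half above 75%; inactive = most below 75%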;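 note: all wells also contain fluconazole at 8 µg/ml as a sub-toxic cotreatment; 0% = median of DMSO wells and 100% = median of geldanamycin control wells; wells of about 8 µL received 7.5 nL stock; the first replicate is given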
RanGTP-Impb inh: disruptors of Ran-importin-beta complex formation – biochemical, FRET, CFP-Ran, YFP-importin-beta, homogeneous, primary screen; cell-free CFP-Ran/YFP-importin-beta FRET ratio; inhibition, % (test concentration not listed); 300,000 tested, 1.1% active;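 active = most replicates above 15%; inconclusive = exactly half above 15%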;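 note: 0% = DMSO wells and 100% = Ran loaded with GDP instead of GTP; wells of about 40 µL received 100 nL stock; the first replicate is given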
Vif TR-FRET: inhibitors of Vif binding to APOBEC3G peptide, primary screen, biochemical, TR-FRET, GST-Vif 1-94, biotin-A3G peptide, dose response retest (AID 1117319); 260,000 tested, 0.57% active; TR-FRET GST-Vif / biotin-A3G peptide binding; higher % means a stronger effect; test concentration not given here; strong numbers were not always called active; inhibition, %; hits with a dose series show IC50 in µM;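 active = above the screen mean plus three standard deviations and confirmed in dose response; inconclusive = results disagree or hit not tested in dose response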;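 note: Vif residues 1-94 fused to GST binding biotinylated APOBEC3G peptide 110-148; 0% = full assay without inhibitor and 100% = GST in place of GST-Vif; retest series ran down from 100 µM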
T cruzi inh: T. cruzi replication inhibition. inhibition, % (concentration not given with the values). AID 1885. T. cruzi beta-gal in NIH3T3, luminescence, 90 h. 300,000 tested, 1.4% active;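 active = mean inhibition across valid replicates above about 55%, limit read from the data; inconclusive = mean below that limit but half or more replicates reach it; inactive = mean below it, under half of replicates reach it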;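 note: signal also drops with host cell toxicity which is not excluded here; 0% = plate median of DMSO wells and 100% = zero luminescence signal; higher percent means less beta-gal luminescence so fewer parasites; stock transfer was 50 nL into about 50 µL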
Ecoli rRNA inh: inhibits bacterial ribosomal RNA function over humanized ribosomes; E. coli WT GFP vs humanized-ribosome RFP mutants, fluorescence, 24 h; hits give low values; DMSO median 0, no signal -100; GFP signal change (wild-type ribosome), % (concentration not given with the values); 350,000 tested, 1.6% active;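 active = significant combined selectivity score with lowered wild-type GFP, culture density cut under 30%, mutant RFP and density less affected; inactive = any of these conditions unmet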; note: one replicate is shown; some compounds called inactive have numbers as strong as hits
Beta apoptosis: blocks beta cell apoptosis. INS-1E cytokine-induced death, ATP luminescence, 48 h; percent of positive-control rescue, neutral wells zero. protection from apoptosis, % (concentration not given with the values). 300,000 tested, 0.8% active. AID 435005;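 active = all replicates at 75% or more, or half of them and the mean; inconclusive = half reach 75% but not the mean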;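 note: 0% = cytokine-treated negative control wells and 100% = positive control rescue; higher means more ATP so stronger rescue from cytokine killing; wells of about 40 µL received 100 nL stock; the first replicate is given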
A1 inh: inhibitors of the anti-apoptotic protein A1, read as caspase activation. 330,000 tested, 0.066% active. MEF A1-2A-BIM cells, Caspase-Glo 3/7 luminescence, 3 h; percent of clofoctol response, vehicle zero. caspase activation, % (test concentration not listed). AID 2462;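 active = over half of replicate activation scores above 10%, or exactly half above 10 with the replicate mean above 10; inconclusive = replicate mean below 10 yet half the replicates above 10; inactive = over half of replicates below 10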;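 note: wells of about 30 µL received 50 nL stock; many hits fall short of the cut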
MLL AF4-AF9 inh: MLL-AF4/AF9 protein interaction inhibition | P42568 | AlphaScreen, biotin-AF4 peptide binding to FLAG-AF9 | inhibition, % at 10 µM | 350,000 tested, 0.47% active;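 active = every replicate reaching a set inhibition limit, whatever the replicate mean, cut at about 25% in these data; inconclusive = mean inhibition reaches that limit but some replicates miss it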;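 note: 0% = plate neutral control median and 100% = total signal loss; the record names both 10 and 1 µM as test concentration; the first replicate is given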
Target sequence (P42568 whole entry, looked up): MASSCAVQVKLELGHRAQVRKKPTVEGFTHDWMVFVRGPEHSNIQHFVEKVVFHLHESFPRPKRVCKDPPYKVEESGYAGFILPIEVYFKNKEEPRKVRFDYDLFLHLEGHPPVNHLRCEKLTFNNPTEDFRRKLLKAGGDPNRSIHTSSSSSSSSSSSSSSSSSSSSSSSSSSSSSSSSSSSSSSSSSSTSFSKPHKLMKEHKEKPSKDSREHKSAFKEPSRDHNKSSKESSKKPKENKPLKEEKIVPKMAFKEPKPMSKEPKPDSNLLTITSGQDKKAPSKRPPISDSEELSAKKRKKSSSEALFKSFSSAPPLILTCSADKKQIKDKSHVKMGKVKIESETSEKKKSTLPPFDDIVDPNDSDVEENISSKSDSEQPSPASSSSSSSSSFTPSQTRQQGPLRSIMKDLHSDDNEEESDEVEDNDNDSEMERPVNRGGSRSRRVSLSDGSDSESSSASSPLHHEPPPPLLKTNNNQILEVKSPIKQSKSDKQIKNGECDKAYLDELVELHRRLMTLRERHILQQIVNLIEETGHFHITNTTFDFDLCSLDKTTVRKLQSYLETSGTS
Ecoli rRNA inh OD600: second read-out of Ecoli rRNA inh, no call of its own (marks repeat the call); OD600 change, %; measured here: OD600 growth;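 optical density of the mix in the first replicate; 0 = DMSO median and -100 = no signal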
Ecoli rRNA inh RFP: further read-out of Ecoli rRNA inh, marked with its call; RFP signal change, %; measured here: RFP humanized mutant strains;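 first replicate; 0 = DMSO median and -100 = no signal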
Numbers without * were called inactive; ? = inconclusive; . = no result given. An excerpt, so the mix of outcomes need not match the whole.

SMILES | Calb FLC | RanGTP-Impb inh | Vif TR-FRET | T cruzi inh | Ecoli rRNA inh | Ecoli rRNA inh OD600 | Ecoli rRNA inh RFP | Beta apoptosis | A1 inh | MLL AF4-AF9 inh
COc1cc2nc(/C=C/c3ccc(N(C)C)cc3)sc2cc1SC | . | . | 21% | . | 24 | 8 | 22 | 2 | -4.1 | -2.1
O=C(CNc1cc(S(=O)(=O)N2CCCC2)ccc1OCC(F)(F)F)Nc1cc(Cl)cc(Cl)c1 | 3 | 15 | ? | 17 | . | . | . | 10 | -0.1 | .
N#Cc1ccccc1NC(=O)C(=O)NCC1CCCN1S(=O)(=O)c1cccs1 (stereo unspecified) | -3 | ? | 3% | -11 | -13 | -9 | -2.6 | -1 | -0.2 | -0.3
CCOCCCN(C(=O)Cn1nnc(-c2ccc(C)o2)n1)C(C(=O)NC1CCCC1)c1ccc(C)o1 (stereo unspecified) | -5 | -0.1 | -5% | 10 | 5 | -10 | -1.0 | . | . | 1.9
CCC(C)NC(=O)c1ccc(-n2c(=S)[nH]c3ccccc3c2=O)cc1 (stereo unspecified) | 22 | 2.2 | -25% | -6 | 1 | 7 | -1.4 | . | -0.4 | -2.0
COC(=O)c1sc(NC(=S)NC(=O)c2ccccc2)nc1C | 2 | 4.4 | . | -3 | 15 | 2 | -2.3 | -3 | -0.9 | -7.5
CSc1cccc(NC(=O)c2nnn(Cc3ccccc3)c2N)c1 | 19 | 2.5 | 5% | 9 | . | . | . | -9 | -0.1 | .
Cc1ccc(C)c(N2CCN(C(=O)Cn3ncn4cccc4c3=O)CC2)c1 | -9 | -0.3 | . | 5 | -2 | -5 | -1.8 | -3 | 0.6 | -0.2
O=C(CSc1nc2c([nH]c3ccccc32)c(=O)n1-c1ccccc1)N1CCOCC1 | -1 | 5.9 | 4% | 27 | 5 | 4 | -0.1 | 6 | -0.5 | -5.0
COC(=O)[C@]1(C)N[C@H](c2ccc(SC3CCCCC3)c(OC)c2)[C@@H]2C(=O)N(C)C(=O)[C@@H]21 | -7 | -8.7 | . | -11 | -1 | -2 | 3.6 | -7 | -0.4 | -1.2
CCOCCCNCc1cc(Br)ccc1OCC | 18 | 0.8 | -1% | -8 | 11 | 6 | 1.1 | -1 | -0.2 | -4.5
O=C(Nc1ccccc1)C1(c2ccccc2)CC1(Cl)Cl (stereo unspecified) | -5 | -2.9 | 0% | -11 | . | . | . | . | -1.3 | .
Cc1ccccc1NC(=O)CSc1nc2ccccc2c(=O)n1C | -3 | -2.2 | . | 6 | -4 | -9 | 22 | 2 | -1.0 | -0.8
COc1ccccc1N(Cc1cc(=O)[nH]c2ccccc12)C(C)=O | -1 | -0.4 | -7% | -5 | 0 | 5 | -0.9 | -4 | -0.3 | 3.7
Cc1ccc(C(=O)Nc2ccc3c(c2)OCO3)cc1Cl | -22 | 0.5 | -42% | 13 | 18 | 31 | -0.3 | . | -1.0 | -3.4
CCOC(=O)c1ccccc1NC(=O)CN(c1ccccc1OC)S(C)(=O)=O | -5 | 0.7 | 10% | 20 | . | . | . | . | -0.1 | .
COCCCNc1nc2c(-c3cccc(C)c3)nnn2c2ccc(Cl)cc12 | 15 | 12 | -13% | 27 | 3 | 14 | 0.4 | 24 | 1.0 | -3.1
CC1=CC(C)C(C(=O)O)C(C(=O)Nc2cccnc2)C1 (stereo unspecified) | -9 | 5.5 | 11% | 0 | 11 | 9 | 1.9 | -2 | 1.1 | 2.0
O=C(CN1CCC2(CC1)OCCO2)c1c[nH]c2ccccc12 | -13 | -1.4 | 4% | -13 | . | . | . | -6 | 0.6 | .
CC1=C(C#N)C(NC(=O)c2ccco2)(C(F)(F)F)C(=O)N1 (stereo unspecified) | -3 | ? | -4% | -7 | 4 | 3 | 3.8 | . | 0.0 | 2.6
NC(=NC(=O)c1ccccc1)C1=C(O)CCC1=O | -1 | -0.9 | -6% | -14 | . | . | . | -2 | 0.3 | .
O=C(Nc1sc2c(c1C(=O)NC1CC1)CCCCCC2)c1ccco1 | -13 | 1.7 | 2% | -1 | . | . | . | -7 | 0.0 | .
CC1(C)Cc2ccccc2C(NN=C2CCCC2)=N1 | -10 | -3.0 | -2% | 4 | . | . | . | 2 | 1.4 | 0.1
CCCCOC(=O)C1=C(N)N2C(=O)C(C)SC2=C(C(=O)OCC)C1c1ccc(O)c(OC)c1 (stereo unspecified) | 4 | -0.7 | . | -2 | -1 | 2 | 2.1 | -3 | -0.3 | -13
Cc1ccc([N+](=O)[O-])cc1N(CC(=O)NCC1CCCO1)S(C)(=O)=O (stereo unspecified) | ? | 0.6 | 10% | -21 | 12 | 9 | -4.9 | -5 | -0.4 | -2.0
CC(C)C[C@@H]1NC(=O)[C@H](Cc2ccccc2)N(C)C(=O)[C@H](C)NC(=O)c2ccccc2NC(=O)[C@H](Cc2ccc(O)cc2)N(C)C1=O | -1 | -5.0 | . | 50 | . | . | . | . | -0.1 | -0.3
CC(C(=O)N1CCc2ccccc21)N1CCN(Cc2ccccc2)CC1 (stereo unspecified) | -7 | 1.3 | 4% | 56* | 3 | 6 | 1.6 | -6 | 1.0 | 1.8
COC(=O)C1=C(C(=O)OC)[C@@H]2N(Cc3ccccc3)c3ccccc3[C@@]23C[C@@H](C(=O)OC)N(C(C)=O)C3=N1 | 1 | -1.8 | 13% | -15 | 6 | 4 | 6.9 | -3 | 0.6 | -14
CCOC(=O)c1ccc(NC(=O)c2c(Cl)cc(C)nc2C)cc1 | -23 | -0.6 | 1% | 14 | -21 | -20 | -4.4 | 2 | -1.9 | 2.8
COc1ccc(S(=O)(=O)N2CCN(c3ccc(F)cc3)CC2)cc1C(=O)N1CCOCC1 | -1 | ? | . | 11 | -1 | 7 | -0.3 | 5 | 0.2 | 1.1
Cc1ccc(NC(=O)Nc2c(C)[nH]c(=O)[nH]c2=O)cc1Cl | 2 | -2.5 | . | -14 | 12 | 22 | 1.1 | -4 | 0.1 | -3.0
CC(=O)Nc1ccc(C(=O)N/C(=C\c2ccccc2)C(=O)Nc2cccc(C(=O)O)c2)cc1 | 0 | -4.2 | 4% | -7 | 7 | 0 | 2.2 | -4 | 0.0 | 5.1
CC(O)CNc1nc2ccccc2n1-c1ncnc2sc3c(c12)CCC3 (stereo unspecified) | 2 | -1.3 | 0% | 38 | . | . | . | 12 | -1.1 | .
Cc1ccc(NC(=O)c2noc3c2CCC3)cc1C | -2 | ? | -3% | -9 | 8 | -1 | 0.9 | . | . | -27
NC(=O)c1ccccc1NC(=O)CC12CC3CC(CC(Br)(C3)C1)C2 | -4 | -1.1 | -8% | -13 | 6 | 3 | 0.8 | -4 | 0.3 | -1.9
Cc1ccc(Cn2c(SCC(=O)N(C)C3CCS(=O)(=O)C3)nc3ccccc3c2=O)cc1 (stereo unspecified) | 27 | 1.4 | 5% | 6 | 9 | 4 | 0.3 | -5 | -0.5 | 0.8
CCOc1ccc(S(=O)(=O)N(CC(=O)Nc2cc(C)on2)Cc2ccccc2Cl)cc1 | -3 | 5.3 | -1% | 21 | . | . | . | 1 | 0.3 | .
COc1ccc(S(=O)(=O)N2CCCCC2)cc1NC(=O)CCCOc1ccc(C)cc1 | . | . | 1% | . | 8 | 15 | -0.1 | 4 | 0.0 | 2.1
OCC1(CCc2ccccc2)CCN(Cc2c(F)ccc(F)c2F)CC1 | ? | 3.5 | 2% | 9 | 0 | -11 | -6.1 | 2 | -0.7 | -0.2
Cc1ccc2c(c1)c1nnc(SCC(=O)NC3CC3)nc1n2C | -1 | 3.0 | . | -1 | 7 | 11 | 0.1 | -3 | ? | -0.7
Cc1ccsc1/C=N/NC(=O)c1nnn(-c2nonc2N)c1CSc1ccccc1 | 17 | 1.3 | . | 1 | 7 | 10 | -1.5 | 4 | 1.4 | 3.6
CCC(C(=O)NCCCN1CCN(CCCNC(=O)C(CC)c2ccccc2)CC1)c1ccccc1 (stereo unspecified) | -2 | 2.8 | . | -4 | -4 | -2 | -1.8 | 9 | -0.2 | 3.2
O=C1CSC(=Nc2ccc(Cl)cc2)N1 | 11 | ? | . | -6 | -8 | -4 | -5.2 | -3 | -0.7 | -5.3
Cc1ccc(C(=O)Nc2cc(-c3ccn[nH]3)c(C)n(N)c2=O)cc1 | 13 | -2.4 | -8% | 5 | 3 | -6 | -1.7 | -4 | -0.2 | 0.9
O=C(Cc1csc(Nc2nc(=S)[nH]c3ccccc23)n1)N1CCN(c2cccc(C(F)(F)F)c2)CC1 | 7 | 0.5 | . | -3 | -2 | -1 | 7.8 | -3 | -0.2 | -1.6
COc1ccccc1N1CCN(C(=O)c2ccc(N3CCCC3=O)cc2)CC1 | -4 | -2.0 | 20% | -1 | . | . | . | -1 | 0.8 | .
NS(=O)(=O)c1ccc(CCNC(=O)COC(=O)C2COc3ccccc3O2)cc1 (stereo unspecified) | . | . | . | . | 12 | 9 | -3.2 | -1 | 1.1 | 1.7
CSc1nc(N)cc(=O)[nH]1 | -2 | 1.8 | 0% | 7 | 4 | 7 | 0.2 | 2 | -0.2 | -4.5
O=C(NCCc1c[nH]c2ccccc12)/C(=C\c1ccco1)NC(=O)c1ccco1 | ? | -2.1 | . | -10 | . | . | . | 0 | 2.1 | 5.2
COc1ccc(Cl)cc1NC(=O)COC(C)=O | 6 | -2.3 | -8% | -4 | 17 | 12 | -0.5 | -11 | 1.8 | -2.0

More structures follow:
SMILES | Calb FLC | RanGTP-Impb inh | Vif TR-FRET | T cruzi inh | Ecoli rRNA inh | Ecoli rRNA inh OD600 | Ecoli rRNA inh RFP | Beta apoptosis | A1 inh | MLL AF4-AF9 inh
N#Cc1c(N2CCCCC2)nc(N)c2c(N)nc3c(c12)CC(c1ccccc1)O3 (stereo unspecified) | -1 | 3.4 | -1% | 16 | . | . | . | . | 1.0 | .
CCOC(=O)N1CCC(NS(=O)(=O)c2cc3c(cc2C)NC(=O)CO3)CC1 | 16 | -4.1 | -2% | 5 | . | . | . | -4 | -0.5 | .
CCn1c(-c2cccc(Br)c2)n[nH]c1=S | -19 | 3.2 | -6% | -15 | . | . | . | -5 | 0.6 | .
O=C(NC(=S)NNC(=O)c1ccco1)c1ccccc1 | 7 | 2.5 | . | -4 | -13 | -38 | -11 | 5 | -0.4 | -1.1
Cn1c(CO)cnc1SCc1ccc(Cl)cc1 | 0 | 1.9 | -1% | -16 | . | . | . | -4 | 0.5 | .
COc1ccc(NC(=O)CN(Cc2ccccc2)S(C)(=O)=O)cc1 | 1 | 1.0 | ? | -5 | . | . | . | 0 | 1.6 | .
